Screening data from PubChem.
RVFV N-RNA FP = inhibitors of Rift Valley Fever Virus nucleocapsid-RNA interaction; 0.1% of 20,000 active; % bound, % (test concentration not listed); AID 651828; RVFV N-RNA binding, fluorescence polarization; stronger effect = lower value;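 active = between 0 and 58% in either replicate with normal brightness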;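 note: 100 nL library stock added to about 12 µL; 100% = protein and probe without compound and 0% = probe alone; numbers are from one replicate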
Target sequence (P21700 whole entry, looked up): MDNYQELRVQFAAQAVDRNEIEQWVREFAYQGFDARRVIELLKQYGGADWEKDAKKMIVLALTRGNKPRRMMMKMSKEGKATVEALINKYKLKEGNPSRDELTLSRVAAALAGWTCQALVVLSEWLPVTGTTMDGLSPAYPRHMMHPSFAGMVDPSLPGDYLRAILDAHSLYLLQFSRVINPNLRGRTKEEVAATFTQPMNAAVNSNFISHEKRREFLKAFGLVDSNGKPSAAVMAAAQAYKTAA
* = called active by the depositor; & = joins results of further samples. Some of the compounds tested; rates above refer to the full screens.

SMILES | RVFV N-RNA FP
CC1/C=C/C=C/CC/C=C/C=C/C=C/C=C/C(O[C@@H]2O[C@H](C)[C@@H](O)[C@H](N)[C@@H]2O)CC(O)C(C(=O)O)C(O)CC(=O)CC(O)C(O)CCC(O)CC(O)CC(O)CC(=O)OC(C)C(C)C1O (stereo not given in full) | 94.5
Cc1cc(C)n(C(CC(=O)O)C(=O)O)n1 (stereo not given) | 99.1
CS(=O)(=O)N(CCCCn1c2ccccc2c2ccccc21)Cc1ccco1 | 90.9
O=C(O)c1nccnc1C(=O)OCCCc1ccncc1 | 98.0
Nc1cc(Nc2ccc(S(N)(=O)=O)cc2)ncn1 | 101.7
CC(=O)[C@H]1CC[C@H]2[C@@H]3CC[C@H]4C[C@H](O)CC[C@]4(C)[C@H]3C(=O)C[C@]12C | 92.9
CC(C)(C)/C=N/NC(=O)C1CC1 | 94.8
O=C1CN(C(=O)CC2c3ccccc3-c3ccccc32)CC(=O)N1 | 94.4
Cn1c(O)c(C=NCCc2c[nH]c3ccccc23)c(=O)[nH]c1=S | 94.4
CCC(=O)Nc1c(C(=O)N2CCc3ccccc3C2)cnn1-c1ccc(C)c(C)c1 | 96.2
N#Cc1nccnc1Oc1ccc(Cl)cc1 | 93.0
Cc1ccc(C)c(C(=O)CSc2nc3ccccc3o2)c1 | 101.8
O=C(Nc1cccnc1)NC1CC(=O)N(c2ccccc2)C1 (stereo not given) | 94.5
CNc1nc(OC)nc(N(C)C)n1 | 89.1
Cc1sc(Nc2ccccc2)nc1-c1ccccc1 | 97.3
Cc1ccc(SCCSc2ncccn2)cc1 | 93.7
COc1cc(OC)cc(C(=O)Nc2ccc(CN3CCCCC3)cc2)c1 | 97.7
O=C(CC1SC(=O)NC1=O)Nc1ccc(F)cc1 (stereo not given) | 114.3
CC(=O)NC(=S)N[C@@H]1O[C@H](COC(C)=O)[C@@H](OC(C)=O)[C@H](OC(C)=O)[C@H]1OC(C)=O | 103.2
Cc1ccc(Cn2c(C)cc(C)c(C#N)c2=O)cc1 | 92.1
Cc1ccc(CNC(=O)c2oc3ccc(C)cc3c2C)cc1 | 96.5
CSc1ccccc1C(=O)NCC(C)C | 96.8
COc1cc2c3cc1Oc1cc(ccc1O)C[C@@H]1c4c(cc(OC)c(O)c4Oc4ccc(cc4)C[C@@H]3N(C)CC2)CC[N+]1(C)C | 100.1
Cc1cccc(OCCn2cc(/C=N/n3cnnc3)c3ccccc32)c1 | 96.5
O=C(O)COc1ccc(-c2nnn(Cc3ccc(Cl)cc3Cl)n2)cc1 | 94.5
CCN(Cc1ccccc1)C(=O)c1ccc(C)cc1 | 98.1
COC(=O)c1nn(-c2ccc(OC)cc2)c(=O)c2c(N)sc(C)c12 | 93.9
O=C(CSc1ccc2nnc(-c3cccnc3)n2n1)c1ccccc1 | 93.1
NNC(=O)CCCc1nc2ccccc2s1 | 95.7
COC(=O)c1c(NC(=S)NCc2ccco2)sc2c1CCC(C)C2 (stereo not given) | 91.9
Oc1ccc2c3c1O[C@H]1c4[nH]c5ccccc5c4C[C@@]4(O)C(C2)N(CC2CC2)CC[C@]314 | 99.1
CC(C)=NNC(=O)Nc1c(-c2c(Cl)cccc2Cl)noc1C | 97.9
O=C(NN1C(=O)c2cccc3cccc(c23)C1=O)c1ccn[nH]1 | 98.9
Cc1cc(NC(=O)NC(=O)c2ccccc2)no1 | 96.2
CCC(=O)Nc1cccc(-c2nc3cccnc3s2)c1 | 99.1
NC(=O)C1=CN(C2OC(COP(=O)(O)OP(=O)(O)OC[C@H]3O[C@@H](n4cnc5c(N)ncnc54)C(OP(=O)(O)O)[C@H]3O)C(O)C2O)C=CC1 (stereo not given in full) | 99.2
Cc1cc(NC(=O)CCC(=O)Nc2cc(C)on2)no1 | 96.9
C[C@@H]1O[C@@H](O[C@H]2C[C@@H](O)[C@]3(CO)[C@@H]4C(CC[C@]3(O)C2)[C@@]2(O)CC[C@H](C3COC(=O)C3)[C@@]2(C)C[C@H]4O)[C@H](O)[C@H](O)[C@H]1O (stereo not given in full) | 93.8
O=C(CSc1ccc2ccccc2c1)N1CCOCC1 | 116.6
C=C(C)C1CC=C(C)CC1 (stereo not given) | 99.9
Cc1cccc(-n2c(C)cc(C=NO)c2C)c1 | 88.0
CC(=O)Oc1ccc2c(c1C)CCCC2 | 95.6
Cc1c(C(=O)N2CCN(c3cccc(C(F)(F)F)c3)CC2)oc2ccccc12 | 101.5
N#CCCN(Cc1ccccc1)S(=O)(=O)c1ccc(F)cc1 | 87.6
CCS(=O)(=O)c1nc2ccccc2n1CC(=O)N(C(C)C)C(C)C | 92.6
Cc1cc(Nc2ccc(O)cc2)n2c(nc3ccccc32)c1C#N | 97.4
CCOC(=O)N1CCN(Cc2sccc2C)CC1 | 95.4
CN(C)P(=O)(OCC(F)(F)F)N(C)C | 86.6
N#CC(C(=O)Nc1ccccc1)=C1CCCCC1 | 109.2
CC1CCN(S(=O)(=O)c2cc(C(=O)O)ccc2Cl)CC1 | 89.7

Next part
SMILES | RVFV N-RNA FP
O=C(O)C1CC=CCC1C(=O)Nc1ccccc1 (stereo not given) | 101.1
COc1ccc(N(C(=O)C(C)Oc2ccccc2)C2C=CS(=O)(=O)C2)cc1 (stereo not given) | 105.7
O=C(CS(=O)(=O)c1ccccc1)Nc1ccc2c(c1)C(=O)NC2=O | 93.5
O=C1c2ccccc2C(=O)N1N1C(=O)c2ccccc2C1=O | 96.6
CC(=O)Nc1cccc(OCCCNC(=O)C2CCC2)c1 | 107.1
O=C(Cc1ccccc1)Nc1ccccc1C(=O)O | 83.9
c1ccc(Nc2ccc(N3CCCC3)nn2)cc1 | 90.1
N#CC1=C2Sc3ccccc3N2CC1=O | 96.3
Cc1ccc(C2C(C#N)=C(N)Nc3oc(C)nc32)cc1 (stereo not given) | 87.8
Cn1nnc(-c2ccc(C(=O)O)cc2)n1 | 97.8
Cn1c(S(=O)(=O)CC(N)=O)nc2ccccc21 | 109.5
CCC(Oc1cccc(Cl)c1)C(=O)NN1CCOCC1 (stereo not given) | 100.6
Cc1cc(C)c(NC(=O)COC(=O)C(O)c2ccccc2)c(C)c1 (stereo not given) | 97.1
CCN1C(=O)/C(=C/c2ccc3c(c2)OCO3)OC1=S | 95.4
CSc1nc(C)nc(Nc2cccc(C(F)(F)F)c2)c1C#N | 89.5
CCOC(=O)C1=C(COCCN)NC(C)=C(C(=O)OC)C1c1ccccc1Cl (stereo not given) | 92.5&89.9
COc1ccc(OC)c(Nc2nc3cc(C)ccc3cc2C)c1 | 94.6
O=C(CCSc1ccccc1)Nc1nnc(-c2ccccc2)o1 | 95.9
CCC1=C[C@@H]2CN(C1)Cc1c([nH]c3ccccc13)[C@@](C(=O)OC)(c1cc3c(cc1OC)N(C)[C@H]1[C@@](O)(C(=O)OC)[C@H](OC(C)=O)[C@]4(CC)C=CCN5CC[C@]31[C@@H]54)C2 | 94.8
c1ccc(-c2csc(N3CCc4ccccc43)n2)cc1 | 96.9
C/C=C(\C)c1nnc(NC(=O)Cc2ccccc2)s1 | 95.2
Cc1c2c(n3c(nc4ccccc43)c1C#N)N(c1ccccc1)CC2 | 91.1
Fc1ccc(-c2oncc2-c2nnnn2-c2ccc(Cl)cc2)c(F)c1 | 96.7
OCCP(c1ccccc1)c1ccccc1 | 111.8
CCOC(=O)c1ccc(NC(=O)CC2SC(=O)N(CN3CCOCC3)C2=O)cc1 (stereo not given) | 101.8
O=C1NCCCCC1NS(=O)(=O)c1ccc2c(c1)OCCCO2 (stereo not given) | 88.4
Nc1c(C(=O)C23CC4CC(CC(C4)C2)C3)oc2ccccc12 | 90.2
c1coc(-c2nc3nc4ccccc4nc3n2CC2CCCO2)c1 (stereo not given) | 92.2
CCOCCn1ccc2c(OCc3cccnc3)cccc2c1=O | 93.8
NC(=O)c1ncn(C2O[C@H](CO)[C@@H](O)[C@H]2O)c1N (stereo not given in full) | 97.2
CC(C)CC(=O)Nc1c[nH]c(=O)[nH]c1=O | 94.4
NC(=S)NCC1CC(c2ccc(Cl)cc2Cl)=NO1 (stereo not given) | 112.1
O=S1(=O)N=C(Nc2nncs2)c2ccccc21 | 93.9
CNS(=O)(=O)c1cc2c3c(cccc3c1)C(=O)NC2=O | 101.5
FC(F)(F)COc1ccc(-c2n[nH]c(=S)o2)cn1 | 92.8
CCN1C(=O)S/C(=C/c2cc(C)n(-c3ccc(S(N)(=O)=O)cc3)c2C)C1=O | 103.5
CC(C)CC(=O)Nc1ccc2ccccc2c1 | 95.4
Cn1c(SCC(=O)c2ccc(F)cc2)nnc1C(O)c1ccccc1 (stereo not given) | 98.6
Cc1ccc(N2CN=C(c3ccccc3)NC2=S)cc1 | 102.8
CCCN1CCC[C@H](c2cccc(O)c2)C1 | 95.3

Compounds shown so far with a thiophene ring, fused or not (3):
SMILES | RVFV N-RNA FP
COC(=O)c1nn(-c2ccc(OC)cc2)c(=O)c2c(N)sc(C)c12 | 93.9
COC(=O)c1c(NC(=S)NCc2ccco2)sc2c1CCC(C)C2 (stereo not given) | 91.9
CCOC(=O)N1CCN(Cc2sccc2C)CC1 | 95.4

Carrying on:
SMILES | RVFV N-RNA FP
CC1(C)O[C@@H]2CC3C4CCC5=CC(=O)C=C[C@]5(C)C4[C@@H](O)C[C@]3(C)[C@]2(C(=O)CO)O1 (stereo not given in full) | 98.5
O=C(Nc1ccccc1F)C1CCCC1 | 97.5
O=c1ccc(-c2ccccc2)nn1Cc1ccncc1 | 94.3
CSc1sc(C#N)c2c1C(=O)CC(c1ccc(C)cc1)C2 (stereo not given) | 99.1
CC(CC(=O)c1cccs1)CC(=O)c1cccs1 | 97.6
Clc1ccc2nc(N3CCCC3)sc2c1 | 93.4
CCCCNC(=O)c1ccc(NS(=O)(=O)CC)cc1 | 92.6
O=c1onc(-c2cccc(C(F)(F)F)c2)n1-c1ccccc1 | 89.0
Cc1cccc(CC(=O)Nc2cc(C)c3c(=O)oc4ccccc4c3n2)c1 | 99.5
COc1cccc(NC(=O)c2cnc(SC)n(C)c2=O)c1 | 96.6
N#CC(C(=O)NCCc1ccccc1)c1nc2ccccc2nc1N1CCOCC1 (stereo not given) | 103.5
Brc1ccc(Nc2ncnc3c2cnn3-c2ccccc2)cc1 | 93.8
COc1ccc(-c2n[nH]c(C)c2-c2ccccc2)c(O)c1 | 92.3
C=CCSC1=C(C#N)C(c2ccccc2OC)C(C#N)C(=O)N1 (stereo not given) | 98.6
COc1ccccc1-c1nnc(NC(=O)c2ccccc2S(C)(=O)=O)o1 | 92.2
O=c1c2c3nc4ccccc4nc3n(-c3cccc(Br)c3)c2ncn1CC1CCCO1 (stereo not given) | 105.1
CCC(CC)C(=O)Nc1cccc(I)c1 | 92.3
CSc1sc(C(=O)/C=C/N(C)C)c(-c2cccs2)c1C#N | 91.2
O=S(=O)(NN=Cc1cn(-c2ccccc2)nc1-c1ccco1)c1ccc(Cl)cc1 | 111.2
CS(=O)(=O)Nc1ccc(C(=O)NCc2ccccc2)cc1 | 95.5
CC(C(=O)NC1=NCCS1)(C(F)(F)F)C(F)(F)F | 102.5
CC1=C(C(N)=O)C(c2ccccc2)NC(=S)N1 (stereo not given) | 99.6
Cc1c(C(=O)Nc2ccccn2)oc2ccccc12 | 105.0
NC(C(=O)O)C(C(F)(F)F)C(F)(F)F (stereo not given) | 79.5
COC(C(=O)NCc1ccc2c(c1)OCO2)c1ccccc1 (stereo not given) | 97.6
N#C/C(=C/c1ccc(-c2cccc(C(F)(F)F)c2)o1)C(=O)N1CCOCC1 | 94.2
COc1ccc(CNC(=O)c2cccs2)cc1 | 96.7
O=C(CCCN1CCC(O)(c2ccc(Cl)cc2)CC1)c1ccc(F)cc1 | 100.7&96.7&96.6
NNC(=O)CNC(=O)c1ccco1 | 99.2
CC(C)=N/N=C1\NC(=O)C(Cc2ccccc2)S1 (stereo not given) | 101.6
CC(C)NS(=O)(=O)c1ccc2nc(NC(=O)c3cccnc3)sc2c1 | 97.1
COc1ccc(CC(=O)O/N=C(\N)c2ccccc2)cc1 | 99.3
CCC(c1nc2ccccc2c(=O)n1-c1ccccn1)N1C(=O)c2ccccc2C1=O (stereo not given) | 98.2
C=CCn1cnc2c(c1=O)c1nc3ccccc3nc1n2-c1cccc(C)c1 | 101.7
N#C/C(=C/c1ccc(-c2cccc(C(F)(F)F)c2)o1)c1cccc(F)c1 | 98.4
Cc1nn2c(CN(C(=O)CN3CCOCC3)c3ccccc3)nnc2c2ccccc12 | 97.8
CCN1C(=O)C(C(c2ccncc2)c2c(O)n(CC)c(=S)n(CC)c2=O)C(=O)N(CC)C1=S (stereo not given) | 94.9
O=S(=O)(NCc1ccc2c(c1)OCO2)c1ccc(I)cc1 | 99.1
Cc1cc(N2CC(C)CC(C)C2)nc2cc(Cl)ccc12 (stereo not given) | 90.2
CN1CCN(NC(=O)CCN2C(=O)/C(=C\c3ccco3)SC2=S)CC1 | 98.4

Molecules shown so far that have an aryl thioether with sulfur outside any ring:
SMILES | RVFV N-RNA FP
Cc1ccc(C)c(C(=O)CSc2nc3ccccc3o2)c1 | 101.8
Cc1ccc(SCCSc2ncccn2)cc1 | 93.7
CSc1ccccc1C(=O)NCC(C)C | 96.8
O=C(CSc1ccc2nnc(-c3cccnc3)n2n1)c1ccccc1 | 93.1
O=C(CSc1ccc2ccccc2c1)N1CCOCC1 | 116.6
CSc1nc(C)nc(Nc2cccc(C(F)(F)F)c2)c1C#N | 89.5
O=C(CCSc1ccccc1)Nc1nnc(-c2ccccc2)o1 | 95.9
Cn1c(SCC(=O)c2ccc(F)cc2)nnc1C(O)c1ccccc1 (stereo not given) | 98.6
CSc1sc(C#N)c2c1C(=O)CC(c1ccc(C)cc1)C2 (stereo not given) | 99.1
COc1cccc(NC(=O)c2cnc(SC)n(C)c2=O)c1 | 96.6
CSc1sc(C(=O)/C=C/N(C)C)c(-c2cccs2)c1C#N | 91.2

(cont.)
SMILES | RVFV N-RNA FP
COC(=O)CC(=O)CN1C(=O)c2ccccc2C1=O | 93.2
CC(C)=CC[C@@H](O)C1=CC(=O)c2c(O)ccc(O)c2C1=O | 89.1
CCN(CC)C(=O)[C@]1(c2ccccc2)C[C@@H]1CN | 93.8
O=C(C(NS(=O)(=O)c1ccccc1)c1ccccc1)N1CCCC1 (stereo not given) | 107.3
Cc1cc(C)cc(C(=O)N2CCCCCC2)c1 | 100.4
